High-throughput results as filed in PubChem BioAssay.
TRPML1 ag = agonists of human TRPML1 channel | Q9GZU1 | TRPML1-expressing cells, Ca2+ dye fluorescence, FDSS; host cell line not named in the record; reference of the full effect not given here | activation, % (test concentration not listed) | actives 0.12% (n = 410,000) | AID 624414; in the data active = activation above about 50%; inconclusive = about 30% to 50%; inactive = below about 30%; note: 0% is about no effect; the text of the record puts the active cut at 80%
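Tet-induced TRPML1-DL cells, 1,500 per well, cultured overnight, were loaded with a no-wash Ca2+ dye for 45–90 min. Calcium fluorescence was recorded on the FDSS for 110 s after compound addition, before the EC80 agonist (4 uM 54-4) was added.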
Six1-Eya2 inh = inhibitors of human Six1/Eya2 interaction. Q15475+O00167. actives 0.56% (n = 360,000). activity change, % (concentration not given with the values). AlphaScreen GST-Six1/His-Eya2 binding, biochemical; hits give low values; control for the full effect not named in the record; in the data active = activity change below about -65%; inconclusive = about -30% to -65%; inactive = above about -30%; note: % is set by controls: 0 for no effect and ±100 for the full control effect
Target sequence (O00167 whole entry, looked up): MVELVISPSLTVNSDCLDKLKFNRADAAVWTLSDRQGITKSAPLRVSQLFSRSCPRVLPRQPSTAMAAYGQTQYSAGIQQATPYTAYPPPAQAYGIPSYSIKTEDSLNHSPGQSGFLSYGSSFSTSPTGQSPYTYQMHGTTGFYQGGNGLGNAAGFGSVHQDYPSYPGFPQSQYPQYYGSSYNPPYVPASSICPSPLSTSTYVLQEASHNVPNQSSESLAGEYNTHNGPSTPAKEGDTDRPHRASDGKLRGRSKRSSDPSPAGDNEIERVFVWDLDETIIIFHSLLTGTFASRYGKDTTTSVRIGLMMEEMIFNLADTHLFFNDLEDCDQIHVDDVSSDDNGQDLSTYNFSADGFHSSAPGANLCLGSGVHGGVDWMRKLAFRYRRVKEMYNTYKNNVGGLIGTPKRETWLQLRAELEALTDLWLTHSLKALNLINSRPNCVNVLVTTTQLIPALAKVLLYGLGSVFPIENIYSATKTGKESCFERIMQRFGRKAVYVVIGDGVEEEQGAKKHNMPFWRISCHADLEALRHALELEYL
Target sequence (Q15475 whole entry, looked up): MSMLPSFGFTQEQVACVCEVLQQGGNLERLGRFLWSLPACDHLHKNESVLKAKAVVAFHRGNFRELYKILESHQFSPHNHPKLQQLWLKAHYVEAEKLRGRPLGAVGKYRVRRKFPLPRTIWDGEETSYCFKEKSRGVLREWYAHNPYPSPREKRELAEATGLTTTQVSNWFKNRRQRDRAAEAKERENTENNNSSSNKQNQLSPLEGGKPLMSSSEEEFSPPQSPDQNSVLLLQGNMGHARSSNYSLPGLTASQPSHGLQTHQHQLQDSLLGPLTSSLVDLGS
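Homogeneous AlphaScreen proximity assay pairing GST-Six1 with His-tagged Eya2 (added as 5X mix: 250 nM and 500 nM) in 50 mM Tris pH 8.0, 300 mM NaCl, 1 mM TCEP. Glutathione donor and nickel acceptor beads; 1 h, 37 °C, dark.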
PINK1 expr mod = changes PINK1 expression. Potency, µM (highest dose often 76.6 µM), for the others: at the top dose activation (PINK1 increase), most hits filed as activators. AID 624263. actives 0.2% (n = 410,000). PINK1 immunofluorescence, high-content cytometry, 24 h; active = well fitted activation curve with a large enough effect; inconclusive = small, poorly fitted or top-dose-only effect; inactive = flat fitted curve, though single readings scatter; cell line not stated here;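 note: potency is the fitted concentration of half-maximal effect; % of control where 0% means no effect; nearly all actives have a fitted effect of over 65% in size; a mitochondrial uncoupler was the plate control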
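Stable cell line, 250 cells/well, 12 h attachment; compounds pinned at 5 concentrations, 24 h; CCCP control. Fixed with nuclear dye, primary antibodies 12 h at 10 degrees C, secondary plus cell stain; laser-scanning cytometer read.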
D2 PAM = positive allosteric modulators of human D2 dopamine receptor; AID 624464; P14416; potentiation, % (no concentration beside the values); DiscoveRx D2 beta-arrestin cells, luminescence, 90 min; 100% = 57 uM dopamine signal; actives 0.23% (n = 360,000); active = potentiation of 50% or more; inconclusive = 30% to 50%; inactive = 30% or less;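 note: compound concentration not given in the record; tested on top of an EC20 dose of dopamine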
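D2 cells co-treated with compound plus 50 nM dopamine (EC20) for 90 min at 37 deg C to detect potentiation. Beta-arrestin recruitment was read as enzyme-fragment luminescence after 1 h at ambient temperature. Full response was set by 57 uM dopamine.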
TRPML1 inh = human mucolipin-1 channel inhibition | Q9GZU1 | TRPML1-inducible cells, Ca2+ dye fluorescence, FDSS; hits give low values; inhibition of EC80 agonist-evoked calcium signal | activity change, negative = inhibition, % (concentration not given with the values) | actives 0.02% (n = 390,000); in the data active means activity change below about -50%; inconclusive means about -30% to -50%; inactive means above about -30%;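 note: stimulus is agonist 54-4 at its EC80 concentration; % is set by controls: 0 for no effect and ±100 for the full control effect; compound concentration not given in the record; the text of the record puts the active cut at -80%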
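Calcium fluorescence in TRPML1-DL cells induced overnight with Tet: a 110 s read after compound pin addition, then a 110 s antagonist read after challenge with 54-4 at 4 uM final (EC80).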
D2 ag = agonists of human D2 dopamine receptor (beta-arrestin). P14416. DiscoveRx PathHunter D2 beta-arrestin, luminescence, 90 min; 100% = 57 uM dopamine signal. activation, % (no concentration beside the values). actives 0.084% (n = 360,000); in the data active = activation above about 40%; inconclusive = about 15% to 40%; inactive = below about 15%; note: compound concentration not given in the record; the text of the record calls up to 30% inactive
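DiscoveRx PathHunter D2 beta-arrestin cells (2,100/well) attached overnight, then compound-stimulated 90 min at 37 C in HBSS/10 mM HEPES/0.1% Tween-20 buffer; beta-galactosidase complementation read by luminescence after 1 h at ambient temperature. Dopamine 57 uM final (EC100) as control.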
Active calls of the source: *; ? = inconclusive; . = not tested or not shown; & = joins results of further samples; [ ] = remark or other dose.

Letter code: A = TRPML1 ag; B = Six1-Eya2 inh; C = PINK1 expr mod; D = D2 PAM; E = TRPML1 inh; F = D2 ag
CCCN(CC(=O)Nc1ccccc1C)C(=O)c1ccc(S(=O)(=O)N2CCCCC2)cc1
  A: -0.5; B: 0; C: 0.2%; D: -30; E: 3; F: -1.7
CC1CCCN(C(=O)CSc2nnc(-c3c[nH]c4ccccc34)o2)C1 (stereo unspecified)
  A: -0.3; B: -18; C: .; D: 8; E: -8; F: -1.5
O=C(NCc1ccc2c(c1)OCO2)C1CC(c2ccccc2O)=NO1 (stereo unspecified)
  A: 0.8; B: -12; C: .; D: -12; E: -10; F: 2.4
CC(C)NC(=O)/C=C/C(=O)O
  A: 0.1; B: 9; C: 1.5%; D: -2; E: 5; F: 2.1
CCn1c(=O)c(C(=O)NNC(=O)Cc2ccccc2)c(O)c2ccccc21
  A: -0.2; B: 32; C: 0.0%; D: -9; E: -4; F: -4.2
COc1ccc(C(=O)N(C)C2CCCN(Cc3ccccc3F)C2)cc1OC (stereo unspecified)
  A: -0.8; B: 2; C: 0.4%; D: -3; E: 4; F: 2.1
CCc1nc(OCCN(CC)CC)c2oc3ccccc3c2n1
  A: -0.1; B: -5; C: -0.7%; D: -12; E: -12; F: -4.8
CCN(CC)c1ccc(/C=N/NC(=O)OC)c(O)c1
  A: 1.9; B: -19; C: 8.7%; D: -5; E: 11; F: -1.9
O=C(CC1Oc2ccc(Cl)cc2NC1=O)NCc1ccccc1 (stereo unspecified)
  A: -0.4; B: .; C: 0.8%; D: .; E: 4; F: .
Cc1cc2c([nH]c3ccccc32)c(C)n1
  A: 0.1; B: 1; C: 0.8%; D: -8; E: 16; F: 4.0
COc1ccc(CC(=O)Oc2ccccc2[N+](=O)[O-])cc1
  A: 0.4; B: 5; C: -0.2%; D: -1; E: -1; F: -2.4
O=C(NCC(=O)N(c1cccnc1)C(C(=O)NC1CCCCC1)c1cccnc1)c1ccco1 (stereo unspecified)
  A: -0.6; B: 0; C: 2.7%; D: -24; E: -6; F: -1.0
CCCNC(=O)N(C)C[C@H]1Oc2cc(Br)ccc2S(=O)(=O)N([C@@H](C)CO)C[C@@H]1C
  A: -0.2; B: 3; C: 0.0%; D: 6; E: 20; F: -3.6
COc1ccc(NC(=S)NC(NC(=O)c2ccc(Cl)cc2Cl)C(Cl)(Cl)Cl)c([N+](=O)[O-])c1 (stereo unspecified)
  A: 1.3; B: -18; C: 15%[38.3 µM]; D: -17; E: -1; F: 0.0
COc1ccccc1N1CCN(Cc2cc(=O)c(OCC(=O)NC(C)C)co2)CC1
  A: 0.5; B: 2; C: 0.2%; D: -5; E: -5; F: 10
CCC/C(O)=C1\C(=O)CCCC1=NC(C)C(=O)O (stereo unspecified)
  A: 0.5; B: -2; C: -0.1%[38.3 µM]; D: 4; E: 11; F: -0.5
Cc1nc(-c2cc(-c3nc(-c4ccc(C(C)(C)C)cc4)no3)no2)cs1
  A: 1.0; B: -2; C: 1.9%; D: -1; E: 2; F: 1.8
COc1ccccc1CNC(=O)CN1C(=O)CCc2cc(S(=O)(=O)N3CCOCC3)ccc21
  A: -1.0; B: .; C: 1.8%; D: .; E: 2; F: .
C/C=C1\COC(C(=O)NCCN2CCCC2)(C(F)(F)F)C=C1C=C1CCCCC1 (stereo unspecified)
  A: 0.6&0.4; B: -15; C: 0.8%; D: -16; E: -5&2; F: 1.7
O=C(CCN1CCCC1)Nc1ccccc1
  A: -0.3; B: 2; C: -0.1%; D: -22; E: 23; F: -2.3
O=C(O)c1ccc(Cl)c(S(=O)(=O)NC(Cc2ccccc2)C(=O)O)c1 (stereo unspecified)
  A: 0.2; B: 1; C: -0.9%; D: 1; E: -5; F: -3.2
Cc1ccc(S(=O)(=O)NNc2nnc(C)c(=O)[nH]2)cc1
  A: 0.0; B: -8; C: 1.0%; D: -5; E: 16; F: -0.5
NC(=O)CC(NC(=O)c1ccccc1)c1ccc(N2CCN(c3ccccn3)CC2)c([N+](=O)[O-])c1 (stereo unspecified)
  A: -0.1; B: 1; C: 1.6%; D: -17; E: 33; F: -3.9
O=C(CCSCc1ccccc1Cl)NCc1ccco1
  A: -0.2; B: 14; C: 0.3%; D: 1; E: 14; F: -1.3
COc1ccccc1NC(=O)CN1C(=O)CC(c2ccc(C)c(C)c2)=Nc2ccccc21
  A: 0.2; B: .; C: 0.1%; D: .; E: 1; F: .

The closing 6 entries of the part before lead into the next:
Letter code: A = TRPML1 ag; B = Six1-Eya2 inh; C = PINK1 expr mod; D = D2 PAM; E = TRPML1 inh; F = D2 ag
O=C(CCN1CCCC1)Nc1ccccc1
  A: -0.3; B: 2; C: -0.1%; D: -22; E: 23; F: -2.3
O=C(O)c1ccc(Cl)c(S(=O)(=O)NC(Cc2ccccc2)C(=O)O)c1 (stereo unspecified)
  A: 0.2; B: 1; C: -0.9%; D: 1; E: -5; F: -3.2
Cc1ccc(S(=O)(=O)NNc2nnc(C)c(=O)[nH]2)cc1
  A: 0.0; B: -8; C: 1.0%; D: -5; E: 16; F: -0.5
NC(=O)CC(NC(=O)c1ccccc1)c1ccc(N2CCN(c3ccccn3)CC2)c([N+](=O)[O-])c1 (stereo unspecified)
  A: -0.1; B: 1; C: 1.6%; D: -17; E: 33; F: -3.9
O=C(CCSCc1ccccc1Cl)NCc1ccco1
  A: -0.2; B: 14; C: 0.3%; D: 1; E: 14; F: -1.3
COc1ccccc1NC(=O)CN1C(=O)CC(c2ccc(C)c(C)c2)=Nc2ccccc21
  A: 0.2; B: .; C: 0.1%; D: .; E: 1; F: .
COc1cc(C(C(=O)NC2CCCC2)N(C(=O)c2snc(C(N)=O)c2N)c2ccccc2)cc(OC)c1OC (stereo unspecified)
  A: -0.5; B: -5; C: 13%; D: -5; E: 7; F: 2.9
FC(F)(F)c1ccc(Sc2n[nH]c(C(F)(F)F)n2)nc1
  A: 0.7; B: 14; C: 2.5%; D: -13; E: 14; F: -2.8
COC(=O)[C@@H](NC(=O)Nc1ccc(OC(F)(F)F)cc1)C(C)C
  A: 0.5; B: 10; C: -2.2%; D: -3; E: 3; F: -3.2
COc1ccc(C(C(=O)NCCC(C)C)N(CCO)C(=O)c2snc(C(N)=O)c2N)cc1OC (stereo unspecified)
  A: -0.3; B: 3; C: 0.0%; D: 0; E: 16; F: 0.4
Cc1ccc(C(=O)O/N=C\c2ccc(N3CCOCC3)c([N+](=O)[O-])c2)cc1
  A: 1.2; B: -2; C: -1.2%; D: -3; E: -10; F: 0.0
Cc1cccc(-c2noc(CSc3nc(-c4ccc(F)cc4)cc(=O)[nH]3)n2)c1
  A: -0.3; B: .; C: 0.8%; D: .; E: -18; F: .
O=C(c1cccc2cccc(O)c12)N1CCCCC1
  A: -0.9; B: -3; C: 0.4%; D: 1; E: -8; F: -2.6
Cc1cc(-c2cccc([N+](=O)[O-])c2)nc2ccc3ccccc3c12
  A: 0.3; B: -1; C: 13%[38.3 µM]; D: -5; E: 1; F: -3.5
CC(C)(C)OC(=O)N[C@@H](Cc1ccccc1)C(=O)N[C@@H](CO)[C@H](O)[C@@H]1C[C@@H]1C(=O)NC1CCCCC1
  A: -0.4; B: -1; C: -0.7%; D: -5; E: 7; F: 2.8
Cc1cc(C(F)(F)F)cc(NNC(=O)NC(=O)c2ccc(Cl)cc2)n1
  A: 0.2; B: 14; C: 5.0%; D: -17; E: 2; F: -0.3
Cc1ccc([C@@H]2C[C@H]3[C@@H](CN2S(=O)(=O)c2ccc(C)cc2)C(=O)C[C@@H](c2cccc(Cl)c2)N3S(=O)(=O)c2ccc(C)cc2)cc1
  A: 1.4; B: 3; C: 0.6%; D: 2; E: 14; F: -9.3
Cc1cnc2c(c1SCC(=O)NCc1ccc(F)cc1)c(=O)n(C)c(=O)n2C
  A: -0.8; B: .; C: -0.6%; D: .; E: 6; F: .
O=C(OCc1cc(=O)n2nc(C3CC3)sc2n1)c1ccccc1Cl
  A: -1.0; B: .; C: 0.6%; D: .; E: -12; F: .
CC/C(=C\C(=O)c1ccncc1)Nc1ccc(O)cc1
  A: 0.4; B: -18; C: 0.4%; D: 28; E: -15; F: 12
COc1ccccc1CNC(=O)COC(=O)CCN1C(=O)C2CC=CCC2C1=O (stereo unspecified)
  A: -0.4; B: 11; C: 0.5%; D: -17; E: -5; F: -3.6
COc1ccc(NC(=O)C2CCN(S(C)(=O)=O)CC2)cc1Cl
  A: 0.5; B: 2; C: -3.8%[38.3 µM]; D: -13; E: 11; F: -1.4
CCCCCCCCSc1nnc(CSc2nc3nc(C)cc(C)n3n2)o1
  A: -0.9; B: 0; C: -0.3%; D: -6; E: 7; F: -3.6
CC1CCN(C(=O)c2ccccc2NS(=O)(=O)c2ccccc2)CC1
  A: -0.1; B: 18; C: -2.4%; D: -11; E: 8; F: -1.4
Cc1c(CCC(=O)NCCCn2ccnc2)c(=O)oc2c(C)c3oc4c(c3cc12)CCCC4
  A: .; B: ?; C: 0.4%; D: -69; E: .; F: -8.9
S=c1[nH]nc(-c2ccccc2)n1/N=C/c1ccc(-c2ccccc2Cl)o1
  A: 0.0; B: ?; C: -1.2%; D: -40; E: 0; F: -6.6
Cc1ccc(C(=O)COC(=O)c2c(C)cc(=O)oc2C)cc1[N+](=O)[O-]
  A: -0.1; B: -1; C: 0.2%; D: ?; E: 3; F: 12
CC1(C)SC(=S)N(/N=C/c2cccnc2)C1N(O)C(=O)Nc1ccccc1 (stereo unspecified)
  A: -0.7; B: -1; C: 0.9%; D: -21; E: 9; F: -3.6
Cc1nn(C)c(Oc2ccccc2)c1CCNC(=O)CC(C)C
  A: 1.4; B: 0; C: 0.4%; D: -2; E: -13; F: 5.1
Cn1c(=O)c2cc(S(=O)(=O)NC(C(=O)NCc3cccnc3)c3ccccc3)ccc2n(C)c1=O (stereo unspecified)
  A: 0.1; B: -1; C: 1.0%; D: -4; E: -5; F: -4.8
Cc1onc(NC(=O)NC(=O)c2c(Cl)cccc2Cl)c1Br
  A: 1.2; B: 0; C: 0.9%; D: -10; E: -5; F: 1.4
CCN1CCN(CCC(=O)Nc2ccc(Br)c(C)c2)CC1
  A: -0.5; B: 22; C: 0.8%; D: -1; E: -8; F: 5.9
Cc1ccc(S(=O)(=O)Oc2ccc(C3C4=C(CCCC4=O)N(CCC(=O)O)C4=C3C(=O)CCC4)cc2Cl)cc1
  A: 0.2; B: -21; C: 0.2%; D: -6; E: 9; F: 1.8
